GALR2 ag – GALR2 receptor agonists, primary screen, cell-based; 140,000 tested, 0.48% active; GALR2-expressing cells, agonist activation read-out; activation, %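 (tested at 5 µM)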; Galanin receptor type 2 (Homo sapiens), O43603;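 active means above mean plus 3 SD of all compounds, about 5% in these data, not always enough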;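 further: 0% = vehicle buffer wells and 100% = reference agonist at full effect; tested in CHO reporter cells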
HSV augment – enhancers of HSV replication in host cells, fold increase, host cell viability. maximum fold increase. HSV replication augmentation in cells. 220,000 tested, 0.005% active. AID 1956, 2009;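 active means peak rise of 1.5-fold or more in the series; inconclusive means self-fluorescent or not available for retest; tested in PC3 cells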;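 further: first round at 10 µM; read as green reporter fluorescence; hits show the peak of a series up to 25 µM; 1 = signal of infected wells without compound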
PKD1 kinase inh – inhibitors of human PKD1 kinase, biochemical, fluorescence polarization | Serine/threonine-protein kinase D1 (Homo sapiens), Q15139 | PKD1 kinase fluorescence polarization assay | inhibition, %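 (about 10 µM by stock and volumes)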 | 200,000 tested, 0.056% active;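 active means inhibition of 50% or more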;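 further: controls were vehicle for no effect and a reference inhibitor for full effect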
Target sequence (Q15139 whole entry, looked up): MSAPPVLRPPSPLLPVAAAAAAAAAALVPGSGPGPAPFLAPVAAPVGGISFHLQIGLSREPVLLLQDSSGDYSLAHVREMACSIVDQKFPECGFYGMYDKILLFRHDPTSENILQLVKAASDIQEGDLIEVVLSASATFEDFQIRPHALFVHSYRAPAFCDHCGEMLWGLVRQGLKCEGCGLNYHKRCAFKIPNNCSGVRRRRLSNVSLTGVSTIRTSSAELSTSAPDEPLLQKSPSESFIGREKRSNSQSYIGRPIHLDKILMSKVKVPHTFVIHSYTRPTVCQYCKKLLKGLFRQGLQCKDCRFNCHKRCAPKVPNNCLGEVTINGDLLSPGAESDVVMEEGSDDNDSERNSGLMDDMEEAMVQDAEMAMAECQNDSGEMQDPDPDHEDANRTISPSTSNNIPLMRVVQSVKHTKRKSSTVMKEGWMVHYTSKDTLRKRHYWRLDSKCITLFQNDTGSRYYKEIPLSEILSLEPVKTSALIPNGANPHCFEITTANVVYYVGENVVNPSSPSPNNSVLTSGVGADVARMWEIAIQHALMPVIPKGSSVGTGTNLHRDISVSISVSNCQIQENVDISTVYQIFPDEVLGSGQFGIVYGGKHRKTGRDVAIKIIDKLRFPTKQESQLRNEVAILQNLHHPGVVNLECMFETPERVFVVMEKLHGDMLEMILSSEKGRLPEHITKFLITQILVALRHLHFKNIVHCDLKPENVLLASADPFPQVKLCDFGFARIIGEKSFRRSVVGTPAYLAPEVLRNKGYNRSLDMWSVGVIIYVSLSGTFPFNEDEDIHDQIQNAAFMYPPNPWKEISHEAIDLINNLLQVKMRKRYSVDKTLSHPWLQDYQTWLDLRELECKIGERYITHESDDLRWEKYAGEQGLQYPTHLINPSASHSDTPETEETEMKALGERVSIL
RGS16-Gao HTS – modulators of RGS16 binding to Galphao, primary screen, biochemical, human proteins, multiplexed bead flow cytometry; Regulator of G-protein signaling 16 (Homo sapiens) + Guanine nucleotide-binding protein …; bead-based flow cytometry RGS16-Galphao binding, fluorescence; actives lie on both sides; binding response (% of control), % at 10 µM; 220,000 tested, 0.38% active; AID 1441, 2008;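 active means below 25% or above 175%, edge rows of some plates excepted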;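 further: Galphao activated by GDP with aluminum fluoride before binding; 100% = wells without compound and 0% = beads without RGS; some results beyond the cut were filed as inactive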
Insulin prom inh – inhibitors of insulin promoter-driven GFP, primary screen, imaging, TRM-6 cells (human fetal islet line), eGFP reporter, cell count | reporter expression induced with tamoxifen | inhibition, % at 2 µM | 130,000 tested, 0.9% active | AID 1273, 2008;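 active means inhibition above the mean plus 3 SD, with well images judged a real hit on visual review, cut at about 60% in these data, passing the limit was not always enough; inconclusive means inhibition over the cutoff but images rejected on review; inactive means inhibition not above the cutoff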
Insulin prom inh cell count – further read-out of Insulin prom inh, marked with its call; normalized cell count, %; measured here: cell count, toxicity; reference of the scale not given here;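 cells exposed to compound for 48 h; stained nuclei by imaging scaled within each plate; lower means fewer cells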
HSV augment primary fold – also measured in HSV augment; calls as there; fold increase; compound at 10 µM; measured here: primary screen fold increase 10 uM; tested in PC3 cells;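 GFP signal in the first replicate; 1 = infected wells without compound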
* = called active by the depositor; i = inactive; ? = inconclusive; . = no result given; & = joins results of further samples; ! = a repeat was not active. A portion of the library, so the mix of outcomes need not match the whole.

canonical_smiles	GALR2 ag	PKD1 kinase inh	Insulin prom inh cell count	HSV augment	HSV augment primary fold	RGS16-Gao HTS	Insulin prom inh
CCCCOC(=O)C1=C(N)OC2=C(C(=O)CCC2)[C@]12C(=O)Nc1ccccc12	0.5	6	83	i	1	99	-118
CN1CCCC(C(=O)c2ccccc2)C1 (stereo not drawn)	-2.0	-14	153	i	0.91	95	35
O=c1[nH]c(=O)n(-c2ccc(F)cc2)c(O)c1C=NCCN1CCCCC1	.	.	.	?	.	99	.
CN1CCc2nc3sc(C(=O)NC4CC4)c(N)c3cc2C1	.	0	.	i	1	101	.
COc1cc(O)c(C(=O)O)c(-c2cc(O)c(O)cc2C)c1	.	.	.	i	1	71	.
CN(C(=O)CNC(=O)OCc1ccccc1)c1ccc(Br)cc1C(=O)c1ccccc1Cl	2.0	-8	74	i	0.67	101	-56
Cn1c(O)c(C(=Nc2ccccc2)SCc2ccccc2Cl)c(=O)n(C)c1=O	.	.	.	i	1	105	.
CC(=NCc1cccnc1)c1c(O)n(C2CCCCC2)c(=O)[nH]c1=O	-2.2	-6	161	i	1	86	-33
C=Cn1ccnc1P(=S)(c1ccccc1)c1nccn1C=C	.	-4	170	i	0.9	106	8
CC(C)(C)C(=O)c1cn(CC(=O)NCc2ccco2)c2ccccc12	.	1	.	i	0.89	108	.
C=CCn1c(O)c(C(C)=Nc2cc(OC)ccc2OC)c(=O)[nH]c1=O	0.6	0	78	i	1	98	56
Cn1c(O)c(C=NC2CC(C)(C)NC(C)(C)C2)c(=O)n(C)c1=O	-0.5	9	.	i	0.85	99	.

Further compounds
canonical_smiles	GALR2 ag	PKD1 kinase inh	Insulin prom inh cell count	HSV augment	HSV augment primary fold	RGS16-Gao HTS	Insulin prom inh
CC1(C)N2CC3([N+](=O)[O-])CN1CC([N+](=O)[O-])(C2)C3	.	.	.	i	0.89	109	.
COc1ccc(N/N=C/c2c(O)n(-c3cccc(C)c3)c(=O)[nH]c2=O)cc1	.	4	.	i	1.1	102	.
C=CCN1C(=O)NC(=O)C(CCc2ccncc2)(CCc2ccncc2)C1=O	.	5	122	i	0.92	109	-46
CCN1CCN(C(=O)Cc2ccccc2OC)CC1	.	0	.	i	0.95	109	.
COc1ccc(CN2CCN(Cc3ccccc3)CC2)c(OC)c1	-3.0	-8	91	i	0.82	118	-22
Cc1c(C(=O)N2CCC3(CC2)OCCO3)sc2ncnc(N(C)c3ccccc3)c12	-1.3	14	124	i	0.97	102	50
CC(C)C(=O)c1cn(Cc2ccc(C#N)cc2)c2ccccc12	-1.4	-8	152	i	1.1	106	-162
COc1ccc(OC)c(/C=N/OC(=O)Nc2ccc(Cl)cc2)c1	.	-1	.	i	1.2	97	.
CN1[C@@H]2CC[C@H]1CC(OC(=O)C1C=Nc3ccccc31)C2 (stereo partly drawn)	-0.4	-7	91	i	0.92	109	24
C=CCN1C(=O)c2ccccc2Sc2ccc(C(=O)N3CCC4(CC3)OCCO4)cc21	-0.4	-8	124	i	0.91	103	-11
CCN(CC)P(=O)(NC(=O)C(Cl)(Cl)Cl)N(CC)CC.[Cl-].[Cl-].[Cl-].[Nd+3]	-2.0	7	102	i	0.91	108	-54
COC(=O)C1=C(N)Oc2c(c(=O)oc3ccccc23)[C@]12C(=O)N(C)c1ccccc12	-2.3	0	74	i	0.82	109	-4

Remaining list, next part:
canonical_smiles	GALR2 ag	PKD1 kinase inh	Insulin prom inh cell count	HSV augment	HSV augment primary fold	RGS16-Gao HTS	Insulin prom inh
CC1=C(C(=O)O)N2C(=O)[C@@H](NC(=O)CCCC(=O)O)[C@H]2SC1	.	-1	.	i	0.88	101	.
Cn1cccc1CN1CCN(C(=O)COc2ccccc2)CC1	-2.0	1	78	i	1	88	-27
CCOC(=O)C1C(=O)N(C)C2(C)CC1c1ccccc1O2 (stereo not drawn)	-2.6	5	.	i	0.98	103	.
Cc1onc(-c2ccccc2)c1C(=O)N1CCC2(CC1)OCCO2	-3.1	-6	77	i	1.3	103	58
O=c1oc2ccccc2c(O)c1[C@H]1c2ccc(O)cc2Oc2c1c(=O)oc1ccccc21	.	.	.	i	1	95	.
CC1CC(OC(=O)c2ccccc2)(c2ccccc2)C(C)CN1C (stereo not drawn)	.	.	.	i	0.96	102	.
C/C(=C\c1ccc(N(C)C)cc1)[N+](=O)[O-]	-2.9	-4	.	.	.	91	.
CN(C)CCNC(=O)c1cccn(Cc2cc(C(F)(F)F)cc(C(F)(F)F)c2)c1=O	.	-9	93	i	0.91	90	46
COc1ccc(OC)c(N2C(=O)NC(=O)C(CCc3ccncc3)(CCc3ccncc3)C2=O)c1	-1.2	-15	102	i	0.95	102	19
COc1cc2c(cc1OC)C(C(=O)NC(C)C)C1CCCCN1C2=O (stereo not drawn)	.	.	.	i	1.2	102	.
N/C(=N/[N+](=O)[O-])N1CCN(C(=O)c2ccc(Cl)cc2)CC1	.	2	.	i	0.89	114	.
Nc1c(C(=O)NCC2CCCO2)c2nc3ccccc3nc2n1Cc1ccco1 (stereo not drawn)	.	.	.	?	.	98	.

(listing goes on)
canonical_smiles	GALR2 ag	PKD1 kinase inh	Insulin prom inh cell count	HSV augment	HSV augment primary fold	RGS16-Gao HTS	Insulin prom inh
Cc1cc(OC(=O)c2cccs2)c2c3c(c(=O)oc2c1)CCCC3	2.1	2	117	i	1	100	7
CCCCNC(=O)Nc1ccc(C(O)(C(=O)OC)C(F)(F)F)cc1 (stereo not drawn)	-0.1	-12	99	i	1.1	95	21
O=C(O)CCn1cc(C=C2C(=O)NC(=O)NC2=O)c(-c2ccc(Br)cc2)n1	-0.9	2	95	i	0.9	88	11
Cc1ccnc(NS(=O)(=O)c2ccc(N=Cc3c(O)n(C)c(=O)n(C)c3=O)cc2)n1	.	-9	.	i	1.3	104	.
CCSc1cc(C2C(C#N)=C(N)Oc3n[nH]c(C)c32)c(C)o1 (stereo not drawn)	-1.9	-1	167	i	0.95	97	6
CN1C2C=C(N(C(=O)c3ccc(Cl)cc3)c3ccccc3)CC1CC2 (stereo not drawn)	-1.8	-14	110	i	0.82	101	25
O=P(O)(O)Cc1ccccc1OP(=O)(c1ccccc1)c1ccccc1	-1.4	4	107	.	.	99	0
CN1Cc2c(c(C#N)c(N)n(C)c2=S)CC1(C)C	.	-6	.	i	1.1	105	.
Cc1nnc2n1-c1ccc(Br)cc1C(c1ccccc1Cl)=NC2	-0.5	-8	108	i	0.77	107	6
COc1ccc(CN2CCCCC2c2cccnc2)cc1C (stereo not drawn)	-2.8	1	.	i	0.91	107	.
CCNc1nc(Cl)nc(NC(C)C)n1	-1.5	-8	116	i	1.1	85	27
CCC(=O)N1CCN(CCN=Cc2c(O)n(C)c(=O)n(C)c2=O)CC1	-1.4	-2	132	i	1	99	28

New compounds follow
canonical_smiles	GALR2 ag	PKD1 kinase inh	Insulin prom inh cell count	HSV augment	HSV augment primary fold	RGS16-Gao HTS	Insulin prom inh
O=C1NC(=O)N(c2ccccc2)C(=O)/C1=C/c1ccc2c(c1)Cc1ccccc1-2	.	-6	107	i	1	92	-10
CCOP(=O)(OCC)C(NC(=O)c1ccccc1Cl)=C(Cl)Cl	0.5	4	144	i	0.93	55	29
c1ccc(-c2[nH]c[n+](CC3CO3)c2-c2ccccc2)cc1 (stereo not drawn)	-0.5	-7	.	i	0.87	99	.
CN(C)C(Cc1ccc(Cl)cc1)C(=O)c1ccccc1 (stereo not drawn)	-0.4	3	.	i	1	108	.
CCCCC(=O)N/N=C/c1c(O)n(Cc2ccc(F)cc2)c(=O)[nH]c1=O	.	.	.	i	1.2	99	.
NC(=O)Cn1cc(C(=O)c2ccccc2F)c2ccccc21	.	-3	.	i	0.97	105	.
COc1ccc2c3c([nH]c2c1)C(C)=NCC3	1.5	-2	86	i	1.1	108	-50
Cc1ccc(C(=O)N[C@@H](C)CN2C3=NC[C@@H](Cc4ccccc4)N3C[C@H]2Cc2ccc(O)cc2)cc1Br	.	-5	.	i	0.44	9.1*	.
CCOC(=O)C1=C(C)OC(N)=C(C#N)C12C(=O)Nc1ccc(C)cc12 (stereo not drawn)	-1.9	-2	.	i	0.85	97	.
CCC(=NCc1cccnc1)c1c(O)n(-c2ccccc2C)c(=O)[nH]c1=O	.	.	.	i	1	88	.
CCCCN1CCC(C#N)(Nc2ccccc2)CC1	-1.7	-6	113	i	0.81	103	-9
CC(C(=O)c1c[nH]c2ccccc12)N1CCN(C(=O)c2ccco2)CC1 (stereo not drawn)	.	.	.	i	0.99	104	.

Other structures
canonical_smiles	GALR2 ag	PKD1 kinase inh	Insulin prom inh cell count	HSV augment	HSV augment primary fold	RGS16-Gao HTS	Insulin prom inh
NP(=O)(Oc1ccccc1Cl)Oc1ccccc1Cl	.	0	.	i	0.93	101	.
CC1(C)COC(Nc2cccc(Cl)c2)=N1	-2.4	-1	150	i	1.1	121	3
c1ccc(CNc2c3c(nc4ccccc24)CCC3)cc1	.	.	.	i	0.68	102	.
COc1ccc(OP(=O)(Nc2ccccc2)Nc2ccccc2)cc1	0.2	7	96	i	1	145	-13
C=Cn1ccnc1P(=S)(c1ccc(Cl)cc1)c1nccn1C=C	.	3	67	i	0.84	100	-71
O=c1[nH]c(=O)n(CCC2=CCCCC2)c(O)c1C=NCc1cccnc1	-0.6	-12	77	i	1	100	-92
Cc1cc2c(C(C)C)c(O)c(O)c(C=O)c2c(O)c1-c1c(C)cc2c(C(C)C)c(O)c(O)c(C=O)c2c1O	-2.8&-2.4	0&4	46*!	i	0.83&0.99	107&102	62*!
COc1ccccc1-n1c(O)c(C=Nc2c(C)n(C)n(-c3ccccc3)c2=O)c(=O)[nH]c1=O	-0.8	7	106	i	0.62	100	23
CCC(C)NC(=O)c1c(N)n(Cc2ccc3c(c2)OCO3)c2nc3ccccc3nc12 (stereo not drawn)	84*	-16	108	i	0.92	104	0
O=C1NC(=O)N(Cc2ccc(F)cc2)C(=O)/C1=C\c1ccoc1	.	.	.	?	.	95	.
O=P(O)(O)C#Cc1ccccc1	-1.2	-3	59	.	.	95	-4
CN(C)c1ccc2c(c1)N=C(c1ccco1)OP2(=S)N1CCOCC1 (stereo not drawn)	-1.4	-2	.	i	1	82	.

Some of the entries above, reformatted:
> NP(=O)(Oc1ccccc1Cl)Oc1ccccc1Cl
- GALR2 ag: .
- PKD1 kinase inh: 0
- Insulin prom inh cell count: .
- HSV augment: i
- HSV augment primary fold: 0.93
- RGS16-Gao HTS: 101
- Insulin prom inh: .
> CC1(C)COC(Nc2cccc(Cl)c2)=N1
- GALR2 ag: -2.4
- PKD1 kinase inh: -1
- Insulin prom inh cell count: 150
- HSV augment: i
- HSV augment primary fold: 1.1
- RGS16-Gao HTS: 121
- Insulin prom inh: 3

Next section
canonical_smiles	GALR2 ag	PKD1 kinase inh	Insulin prom inh cell count	HSV augment	HSV augment primary fold	RGS16-Gao HTS	Insulin prom inh
CC[N+](CC)(CC)CCCCCCCCCC[N+](CC)(CC)CC	-3.7	-6	48	i	0.92	103	0
CCc1ccc(CN2CCCC(C(=O)c3sccc3C)C2)o1 (stereo not drawn)	.	-3	.	i	0.92	112	.
O=[N+]([O-])NC1=NCN(Cc2ccco2)CN1Cc1ccco1	-1.1	-7	90	i	1	104	-23
O=C1NC(=O)C(CCc2ccncc2)(c2ccccc2)C(=O)N1	-1.4	-14	124	i	1	98	4
O=C(c1cc(Br)ccc1Cl)N1CCC2(CC1)OCCO2	-2.3	-6	156	i	0.8	107	-58
CCCCCCn1c(=O)c(C(=O)Nc2cnccn2)c(O)c2ccccc21	.	-6	.	i	1.1	94	.
O=c1[nH]c(=O)n(CCc2ccccc2)c(O)c1C=NCc1ccc2c(c1)OCO2	-1.8	-1	118	i	0.8	104	-14
FC(F)(F)c1ccc2c(c1)ncn2C1CCN(Cc2nnnn2C2CCCCC2)CC1	0.6	3	.	i	0.99	96	.
Cc1cc(C)c(C2=NOC(O)(C(F)(F)F)C2)c(=O)[nH]1 (stereo not drawn)	-2.0	7	.	i	0.89	106	.
COc1ccc(C(CC(=O)N2CCC3(CC2)OCCO3)NS(=O)(=O)c2ccc(OC)cc2)cc1 (stereo not drawn)	-1.3	-22	86	i	0.82	103	-26
CC(=O)N1N=C(c2cccnc2)CC1c1ccccc1O (stereo not drawn)	.	-9	.	i	0.74	98	.
CN(C)c1ccc(/C=C2/C(=O)NC(=O)N(Cc3ccco3)C2=O)cc1	-0.7	3	.	.	.	102	.
